# High-throughput results (PubChem BioAssay)
# HCMV NEC inh – cytomegalovirus nuclear egress complex inhibition. HTRF UL50-UL53 interaction, normalized percent inhibition. inhibition, % (test concentration not listed). 190,000 tested, 0.15% active;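 active = both replicates at 50% or more, plus weaker picks with an unusually low signal ratio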;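 also: stock transfer was 100 nL into about 20 µL; 0% = negative control wells and 100% = wells with untagged competitor protein; inactives centre near -12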
# Sa growth 42C – S. aureus growth inhibition; S. aureus RN4220 growth, OD600, 20 h, 42 °C; hits give low values; relative growth, % (concentration not given with the values); 170,000 tested, 0.53% active; AID 720641;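 active = growth at 42 °C up to 50% and 20 or more points under that at 30 °C, or under 10% at both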;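 also: 300 nL library stock went into each well; scaled to the means of positive and negative controls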
# GIV-Gai inh – blocks GIV peptide binding to rat Galpha-i3. P08753. Galpha-i3/FITC-GIV peptide fluorescence polarization, 90 min; hits give low values; scaled: aluminum fluoride 0%, vehicle 100%. percent of control (FP), % (test concentration not listed). 210,000 tested, 0.42% active. AID 1224905;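 active = replicate mean at 85% of control or lower, very high polarization wells dropped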;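 also: wells of about 15 µL received 100 nL stock; the first replicate is given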
# Target sequence (P08753 whole entry, looked up): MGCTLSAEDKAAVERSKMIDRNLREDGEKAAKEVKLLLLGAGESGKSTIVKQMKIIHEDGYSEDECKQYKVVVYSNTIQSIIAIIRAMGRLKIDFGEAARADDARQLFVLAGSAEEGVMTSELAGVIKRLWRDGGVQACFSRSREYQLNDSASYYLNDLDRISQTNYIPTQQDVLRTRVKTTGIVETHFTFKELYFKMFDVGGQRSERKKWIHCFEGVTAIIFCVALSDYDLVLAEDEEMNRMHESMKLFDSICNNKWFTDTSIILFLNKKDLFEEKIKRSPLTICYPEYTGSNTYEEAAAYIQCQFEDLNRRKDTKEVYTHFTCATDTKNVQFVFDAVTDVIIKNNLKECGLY
# Sa growth 42C second temp – second read-out of Sa growth 42C, no call of its own (marks repeat the call); relative growth, %; measured here: growth at 30 °C;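 optical density after 20 h as mean of two plates; 100% = untreated growth and lower means inhibition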
# Starred values were filed as active, the others as inactive; / = not tested or not shown; & = joins results of further samples.
SMILES,HCMV NEC inh,Sa growth 42C,Sa growth 42C second temp,GIV-Gai inh
N#Cc1ccc(NC(=O)Cc2ccccc2)cc1,0,93,94,/
CCOC(=O)c1c(NC(=O)CSc2nccn2C)sc2c1CCCC2,-16,70,79,91
CCOC(=O)c1sc(NC(=O)C2CC(=O)N(c3ccccc3)C2)c(C#N)c1C (stereo unspecified),-4,80,66,103
O=C(CN1C(=O)CCC1=O)c1ccc(F)cc1,28,91,87,104
CCOc1ccc2cc(C3CC(c4ccc(Br)cc4)=NN3C(=O)CC)c(=O)[nH]c2c1 (stereo unspecified),4,/,/,105
Cc1cc(Nc2cc(C(F)(F)F)nc3c(Cl)cccc23)on1,3,100,77,106
COc1ccc(NC(=O)C(C)SC2=Nc3ccccc3C3=NC(C)C(=O)N23)cc1 (stereo unspecified),-11,/,/,106
O=C(CC1SC(=Nc2ccc(O)cc2)NC1=O)Nc1ccccc1 (stereo unspecified),-31,86,82,104
COc1ccccc1CN(C)C(=O)c1ccc2nc[nH]c2c1,-13,91,84,/
Cc1nc(-c2ccccc2)sc1-c1ccc(SCC(=O)Nc2ccc(F)cc2F)nn1,/,91,82,106
COc1ccc(Cl)cc1S(=O)(=O)n1cnc(C)c1,1,/,/,100
COc1ccc(Sc2cnc3ccccc3n2)cc1,-39,/,/,100
O=C(CN1CCC(c2nc(-c3ccncc3)n[nH]2)CC1)N1CCN(c2ccccc2F)CC1,-6,96,84,98
CCOc1ccc(NC(=O)CN(Cc2ccccc2)S(=O)(=O)c2ccc3nc(C)sc3c2)cc1,/,74,86,96
c1ccc(COc2c3c(nc4ccccc24)CCCC3)cc1,/,84,55,100
COc1ccc(Nc2c(C#N)c(C)nn2-c2ccccc2)cc1,-2,102,98,117
O=C(NC1CCCCC1)c1cc2c(Cl)nc3ccccc3c2s1,-18,98,89,100
O=C(Oc1ccc(/C=N/n2cnnc2)cc1)c1ccco1,-25,115,86,/
Cc1cc(C)cc(NC(=O)C(=O)NCC(c2cccnc2)N2CCc3ccccc3C2)c1 (stereo unspecified),-24,111,94,108
O=C(CS(=O)(=O)c1cccc2nsnc12)Nc1ccc(F)cc1F,/,89,85,103
Cc1cc(C)cc(OCC(=O)Nc2nnc(SCc3cc(=O)n4oc(C)cc4n3)s2)c1,-27,/,/,104
CC(C)(C)C(=O)Nc1nc(NC(=O)C(C)(C)C)nc(-c2ccccc2Cl)n1,5,97,95,101
Cc1cccc(OCCSC(N)=S)c1,-8,84,69,104
COC(=O)c1ccccc1NC(=O)c1ccc(F)cc1,-5&-11,/,/,100

# Fetched by compound from above (four):
SMILES,HCMV NEC inh,Sa growth 42C,Sa growth 42C second temp,GIV-Gai inh
COC(=O)c1ccccc1NC(=O)c1ccc(F)cc1,-5&-11,/,/,100
Cc1cc(C)cc(OCC(=O)Nc2nnc(SCc3cc(=O)n4oc(C)cc4n3)s2)c1,-27,/,/,104
CC(C)(C)C(=O)Nc1nc(NC(=O)C(C)(C)C)nc(-c2ccccc2Cl)n1,5,97,95,101
Cc1cc(C)cc(NC(=O)C(=O)NCC(c2cccnc2)N2CCc3ccccc3C2)c1 (stereo unspecified),-24,111,94,108

# Further records:
SMILES,HCMV NEC inh,Sa growth 42C,Sa growth 42C second temp,GIV-Gai inh
O=S(=O)(Nc1nc2ccccc2nc1NCc1ccco1)c1ccc(F)cc1,-24,90,78,105
Cc1cc(N2CCn3c(nc4cc(Cl)ccc43)C2)ccc1NS(C)(=O)=O,21,/,/,99
CN1C(=O)c2ccccc2Sc2ccc(NC(=O)c3ccccc3F)cc21,/,102,101,100
O=C(CSc1cccc[n+]1[O-])N1CCCc2ccccc21,-37,93,84,/
Cc1nn(-c2ccccc2)c2sc(-c3nc(=S)[nH][nH]3)cc12,-7,77,72,/
Clc1ccc(Cc2nc3nc4c(c(NCc5ccc6c(c5)OCO6)n3n2)CCC4)cc1,4,/,/,102
COc1ccc(C(C)(O)C(CN2CCOCC2)c2ccc(Cl)cc2)cc1 (stereo unspecified),14,/,/,104
CCc1nn2c(=O)cc(COC(=O)c3cccc(NC(=O)CCc4ccccc4)c3)nc2s1,/,92,85,101
Cc1nnc(SCC(=O)c2c(C)[nH]c3ccccc23)s1,-4,82,83,99
COC(=O)c1cc(=O)nc(NC(=O)Nc2c(-c3c(Cl)cccc3Cl)noc2C)s1,-37,85,81,98
Cc1[nH]c2ccccc2c1C(c1ccccc1)c1ccc(Cl)s1 (stereo unspecified),-41,103,84,107
Cc1cccc(-c2noc(-c3ccc(F)cc3Cl)n2)c1,3,113,111,105

# Reformatted as tab-separated lines: entries from further up.
SMILES	HCMV NEC inh	Sa growth 42C	Sa growth 42C second temp	GIV-Gai inh
O=C(CN1C(=O)CCC1=O)c1ccc(F)cc1	28	91	87	104
CCOc1ccc2cc(C3CC(c4ccc(Br)cc4)=NN3C(=O)CC)c(=O)[nH]c2c1 (stereo unspecified)	4	/	/	105
Cc1cc(Nc2cc(C(F)(F)F)nc3c(Cl)cccc23)on1	3	100	77	106

# Further entries.
SMILES,HCMV NEC inh,Sa growth 42C,Sa growth 42C second temp,GIV-Gai inh
CCOc1ccc(NC(=O)NCc2cccn2C)cc1,/,117,90,99
CC1=Nc2cc(C(=O)NCCc3ccccc3)ccc2Sc2ccccc21,/,90,86,108
C=CCn1c(=O)c2ccccc2n2nnc(C(=O)OCC)c12,-23,122,86,109
O=C(O)c1cnc(NCc2ccccc2)s1,-8,107,84,104
C#CCOC(=O)Nc1cnc(N(C)C)c(C(F)(F)F)c1,-22,93,82,109
Cc1ccc(NC(=O)NC(Cc2ccccc2)Cc2ccccc2)cc1,-18,/,/,99
COc1ccc(CN(C)CC(=O)NC(C)c2ccccc2)c(OC)c1 (stereo unspecified),11,90,89,/
Cn1c(O)c(/C=N/Nc2nc3ccccc3s2)c(=O)n(C)c1=O,-28,104,80,/
CCC(C)C(NCc1c(O)ccc2c(C)cc(=O)oc12)C(=O)O (stereo unspecified),-1,83,92,/
CCc1ccc2[nH]c3nc(C)cc(C)c3c(=O)c2c1,/,105,86,94
O=C(CC1SC(=Nc2ccccc2)NC1=O)NC1CC1 (stereo unspecified),-9,87,89,/
Cc1ccccc1Cn1nc(C)c2c(C)onc2c1=O,-13,/,/,112

# 5 compounds from above, ordered by their value in GIV-Gai inh, low to high:
smiles	GIV-Gai inh
CCc1ccc2[nH]c3nc(C)cc(C)c3c(=O)c2c1	94
CCOc1ccc(NC(=O)NCc2cccn2C)cc1	99
CC1=Nc2cc(C(=O)NCCc3ccccc3)ccc2Sc2ccccc21	108
C#CCOC(=O)Nc1cnc(N(C)C)c(C(F)(F)F)c1	109
Cc1ccccc1Cn1nc(C)c2c(C)onc2c1=O	112

# The list continues:
SMILES,HCMV NEC inh,Sa growth 42C,Sa growth 42C second temp,GIV-Gai inh
CC(=O)Oc1ccc2c(c1)CCC1C2C(O)CC2(C)C(=O)CCC12 (stereo unspecified),-11,91,88,110
Cc1ccc(CSc2nc3ccccc3c3nc(CCn4nc(C)cc4C)nn23)cc1,/,92,91,102
O=C(NCc1ccccn1)C1CCC(CNS(=O)(=O)c2ccccc2)CC1 (stereo unspecified),/,116,82,104
CC(C)c1ccc(N2C(=O)CSC23C(=O)N(Cc2ccccc2)c2ccccc23)cc1 (stereo unspecified),/,118,85,108
O=C(Nc1ccnn1Cc1ccco1)c1cccnc1Sc1ccccc1,-15,94,89,/
CCC(CC)C(=O)Nc1nnc(S(=O)(=O)N(C)c2cc(C)cc(C)c2)s1,-2,82,90,102
Cc1ccccc1-c1cc(N2CCN(S(=O)(=O)c3cnn(C(F)F)c3C)CC2)ncn1,9,/,/,105
Cc1cc(C)c(NC(=O)C(C)n2c(=O)cc(-c3ccccc3)c3c(C)nn(C)c32)c(C)c1 (stereo unspecified),/,106,93,100
N#CC1=C2SCN(C3CCCCC3)CN2C(=O)CC1c1ccc(Cl)cc1 (stereo unspecified),-28,99,76,104
CC(=O)NCCC(=O)N1C(=NCCc2ccccc2)SCC1(C)C,1,98,99,/
COc1cc(CNC(C)(C)C)ccc1OCc1ccc2c(c1)n(C)c(=O)n2C,-19,/,/,108
O=C(O)C1OC(c2cccc(Cl)c2)=NC12CC2 (stereo unspecified),/,91,93,98
O=C(Cn1cc(S(=O)(=O)Cc2ccccc2Cl)c2ccccc21)Nc1cccc(C(F)(F)F)c1,/,95,92,101
COC(=O)COc1ccc(S(=O)(=O)N2CCC(C)CC2)cc1,-6,103,79,101
Cn1c2c(c(=O)n(C)c1=O)C(c1cccc(O)c1)CC(=O)N2 (stereo unspecified),-10,113,88,105
CCOc1cc(CNCCSc2nnnn2C)ccc1OCc1ccc(Cl)cc1,-24,/,/,96
CCc1cccc(C)c1Nc1c(-c2cccs2)nc2ncccn12,-19,108,77,121
COc1ccc(Cn2c(SCC(=O)Nc3ccc(OC)cc3)nc3ccccc32)cc1,/,86,68,100
CCON1C(=O)c2ccccc2C1=O,-62,96,91,104
O=C(CSc1ncnc2ccccc12)Nc1ccnn1C1CCCC1,-7,102,65,/
CCN(CC)c1ccc(-c2n[nH]c(=S)n2-c2ccccc2C)cc1,6,114,85,/
O=C(c1ccc2c(c1)N(Cc1ccc(Cl)cc1)C(=O)c1ccccc1S2=O)N1CCC(Cc2ccccc2)CC1 (stereo unspecified),-25,104,107,98
Cc1ccc(C2c3c(oc4ccccc4c3=O)C(=O)N2c2ccccn2)cc1 (stereo unspecified),-10,102,97,104
Nc1ncc2c(n1)CC(c1ccccc1)CC2=O (stereo unspecified),-5,88,92,100
CCCNC(=O)c1cnn2c(C)c(Cc3ccccc3)c(C)nc12,/,101,89,97
CC(NS(=O)(=O)c1ccccc1)C(=O)NCc1ccc2c(c1)OCO2 (stereo unspecified),6,92,72,100
Cc1nnc(N/N=C/C2CC=CCC2)[nH]c1=O (stereo unspecified),-22,82,85,107
Cc1[nH]c2ccccc2c1C(=O)CN1CCCC1,-26,95,83,/
Cc1cccc(C(=O)Nc2ccc(S(=O)(=O)Nc3nc(C)cc(C)n3)cc2)c1,-7,/,/,110
CCNc1nc(NCC)n2c(SCC(=O)c3cccc(C(F)(F)F)c3)nnc2n1,-12,88,88,/
COc1ccc2[nH]cc(CCNC(=O)c3c(-c4cccnc4)noc3C)c2c1,-9,/,/,98
O=C(O)CSCc1csc2c1CCCC2,/,109,95,96
CC1(C(=O)NC2CCCCC2)COc2nc(-c3ccccc3)sc2C(=O)N1CCc1ccccc1 (stereo unspecified),-25,/,/,97
COc1ccc(C2NN(Cc3ccccc3)C3C(=O)N(Cc4ccccc4)C(=O)C23)cc1 (stereo unspecified),8,71,72,101
CN(c1ccccc1)S(=O)(=O)c1c[nH]c(=O)[nH]c1=O,-10,102,91,101
c1ccc(-c2nnc(CSc3nnc(C4CCCCC4)o3)o2)cc1,-10,98,81,/
Cc1ccc(C)c(NC(=S)N(Cc2ccco2)C(C)c2ccco2)c1 (stereo unspecified),-11,93,73,97
CCN(C(=O)CSc1nnc(-c2cc3occc3n2C)n1-c1ccccc1C)c1ccccc1,/,83,83,112
COc1cccc(NCc2nnc(SCc3nnc(-c4cc(C)oc4C)o3)n2C2CCCCC2)c1,-10,86,83,/
CN1CCN(C(=O)c2ccc3c(c2)N(Cc2ccc(C(F)(F)F)cc2)C(=O)c2ccccc2S3)CC1,-2,102,93,98
Cc1ccc(-n2nc(C)c(C3(O)C(=O)N(CCC(C)C)c4ccccc43)c2N)cc1 (stereo unspecified),-7,106,93,/
CC1(C)CC(=O)C(C=NCCN2CCOCC2)=C(O)C1,/,84,81,104
COC(=O)c1cc2sccc2n1Cc1ccc(C)cc1,-33,98,96,105
CC1=CCC(Cc2nc3ccccc3o2)C1(C)C (stereo unspecified),-33,115,84,/
Cc1c(-c2ccccc2)sc(N)c1C#N,-6,92,83,102
Cc1ccc(S(=O)(=O)NC(=O)Nc2ccc(Cl)cc2)cc1,-16,/,/,93
COc1cccc(Cc2nc3ccccc3nc2SCC(=O)N2CCN(c3ccccc3)CC2)c1,/,105,94,101
COc1cccc(Cc2nnc(-c3ccc(-c4cccs4)s3)o2)c1,-36,98,71,108
O=C(Nc1ccc(Cl)cc1)N1CCC(CN2CCCCCC2)CC1,/,116,85,103
O=C1NCCCC1C(=O)NCCc1c[nH]c2ccc(OCc3ccccc3)cc12 (stereo unspecified),-16,98,89,/

# Full records as entered above.
# CCOc1cc(CNCCSc2nnnn2C)ccc1OCc1ccc(Cl)cc1 across the screens: HCMV NEC inh = -24; Sa growth 42C = /; Sa growth 42C second temp = /; GIV-Gai inh = 96
# CCC(C)C(NCc1c(O)ccc2c(C)cc(=O)oc12)C(=O)O (stereo unspecified) across the screens: HCMV NEC inh = -1; Sa growth 42C = 83; Sa growth 42C second temp = 92; GIV-Gai inh = /
